# KCNQ2 inh – KCNQ2 channel blockers in CHO-K1 cells – cell-based, FluxOR thallium flux, B-score, primary screen (AID 2156) | O88943 | 20 min; stronger effect = lower value; only compounds with negative scores are shown here; some inactives read as strong as hits | B-score at 10 µM | hit rate 1.1% among 310,000;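 active = fluorescence ratio B-score at most minus 3 library SDs, with starting brightness B-score within 2 library SDs, cut at about -5.5 in these data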
# Target sequence (O88943 whole entry, looked up): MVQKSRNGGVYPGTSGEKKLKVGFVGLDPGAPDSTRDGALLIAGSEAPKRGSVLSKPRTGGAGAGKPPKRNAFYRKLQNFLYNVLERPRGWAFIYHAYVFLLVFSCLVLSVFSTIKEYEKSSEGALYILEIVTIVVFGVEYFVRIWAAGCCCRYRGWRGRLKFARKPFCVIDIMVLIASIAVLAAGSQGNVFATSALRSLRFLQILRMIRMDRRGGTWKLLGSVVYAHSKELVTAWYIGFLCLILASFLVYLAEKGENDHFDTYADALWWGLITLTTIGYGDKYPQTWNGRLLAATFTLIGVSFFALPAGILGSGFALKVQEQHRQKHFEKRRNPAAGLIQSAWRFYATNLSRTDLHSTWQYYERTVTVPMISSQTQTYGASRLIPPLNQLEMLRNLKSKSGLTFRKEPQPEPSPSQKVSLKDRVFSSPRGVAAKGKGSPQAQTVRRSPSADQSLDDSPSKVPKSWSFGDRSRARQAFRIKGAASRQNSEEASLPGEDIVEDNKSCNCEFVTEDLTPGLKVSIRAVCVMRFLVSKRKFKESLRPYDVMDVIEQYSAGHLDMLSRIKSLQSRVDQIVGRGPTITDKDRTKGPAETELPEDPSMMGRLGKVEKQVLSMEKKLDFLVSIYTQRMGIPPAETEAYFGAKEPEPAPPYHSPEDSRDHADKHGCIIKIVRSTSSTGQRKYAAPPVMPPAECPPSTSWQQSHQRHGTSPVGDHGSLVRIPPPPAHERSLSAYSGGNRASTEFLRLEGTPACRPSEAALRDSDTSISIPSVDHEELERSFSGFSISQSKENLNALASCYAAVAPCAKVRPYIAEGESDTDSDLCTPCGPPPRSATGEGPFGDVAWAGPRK
# KCNQ2 inh baseline – recorded beside KCNQ2 inh, whose call it bears; B-score; measured here: initial fluorescence intensity artifact check;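 brightness before thallium and not channel activity; 0 = typical well and far values either way flag optical interference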
# An asterisk follows results filed as active; i = inactive. A portion of the library. The share of hits here may be higher or lower than overall.
# The opening 3 records, ahead of the listing:
SMILES,KCNQ2 inh,KCNQ2 inh baseline
Cc1ccc(OCC(=O)N/N=C/c2ccncc2)cc1,i,-0.36
Cc1c(C(=O)c2no[n+]([O-])c2C(=O)c2cnn(C)c2C)cnn1C,i,-0.75
COc1ccccc1N1CCN(C(=O)c2oc3cc(C)c(C)cc3c2C)CC1,i,-0.84

# This part in full, from the first entry:
SMILES,KCNQ2 inh,KCNQ2 inh baseline
Cc1ccc(OCC(=O)N/N=C/c2ccncc2)cc1,i,-0.36
Cc1c(C(=O)c2no[n+]([O-])c2C(=O)c2cnn(C)c2C)cnn1C,i,-0.75
COc1ccccc1N1CCN(C(=O)c2oc3cc(C)c(C)cc3c2C)CC1,i,-0.84
CCOc1cccc(C(=O)Nc2cccc(NC(=O)c3ccco3)c2)c1,i,-1
COc1ccc(Cc2nc3ccccc3n2CC(=O)N/N=C/c2ccc(O)cc2)cc1OC,i,-0.38
Cc1ccnc(N2C(=O)c3ccccc3C2Nc2ccc3c(c2)OCCO3)c1 (stereo not drawn),i,-0.96
CCOC(=O)c1c(C)[nH]c(O)c1C=Nc1ccccc1,i,-0.49
Cc1cccc(C)c1OCCCCN1CCCCC1,i,-0.2
CCOC(=O)Cn1nc(NC(=O)c2ccc3c(c2)OCO3)cc1C,i,1.4
CCC(C)Sc1nnc(CNC(=O)C23CC4CC(CC(C4)C2)C3)n1C1CCCCC1 (stereo not drawn),i,-0.43
O=C(C1CCCCC1)N1CCC(CO)(Cc2ccccc2Cl)CC1,i,-1.2
COc1ccc(OCCOC(=O)CNC(=O)c2cccc(C)c2)cc1,i,0.74
CCOC(=O)c1cc2oc(C)cc2n1CC(=O)OC1CCCCC1,i,1
COC(=O)C1=CN(CCCN2CCCC2=O)C=C(C(=O)OC)C1c1ccccc1C(F)(F)F,i,-2.1
CC(C)Cc1nnc(NC(=O)CCC(=O)Nc2ccccc2)s1,i,0.51
O=C(CSc1nnc(CCc2ccccc2)n1-c1ccc(Cl)cc1)NCc1ccccc1,-7.4*,-0.41*
Cc1nc2nc(C)c(CCC(=O)O)c(C)n2n1,i,-0.46
O=C(CSc1cn[nH]n1)Nc1ccccc1F,i,2.9
O=C(CCC1CCCN(Cc2ccc(O)c(Cl)c2)C1)NCc1ccccc1F (stereo not drawn),i,-0.54
O=C(Nc1cc(Cl)ccc1Oc1ccccc1)c1cnccn1,i,-0.42
CC(C(=O)O)N1C(=O)c2cccc3cccc1c23 (stereo not drawn),i,-0.66
Cc1ccc2c(CNCc3ccccc3)cc(=O)oc2c1,i,-0.79
CCOC(=O)CNC(=O)Cn1cnc2sc(C)c(S(=O)(=O)N3CCOCC3)c2c1=O,i,-1.4
O=C(COC(=O)c1ccco1)c1ccc(S(=O)(=O)N2CCCCC2)cc1,i,1.7
COc1ccc(NC(=S)NCCc2ccc(Cl)cc2)c(OC)c1,i,2
Cc1ccc(CCNC(=O)C2CCN(S(=O)(=O)N3CCCCC3)CC2)cc1,i,1.7
CCOC(=O)CSc1nc(-c2ccccc2)nc2ccc(C)cc12,i,0.01
C=CCNc1nc(Cl)nc(Nc2ccc(OCC)cc2)n1,i,1
C#CCOc1ccc(C2C3=C(CC(C)(C)CC3=O)N(CC(=O)O)C3=C2C(=O)CC(C)(C)C3)cc1,i,0.59
COc1ccc(CNC(=O)c2ccc(Cn3cc(Cl)cn3)o2)cc1,i,1.1
CCN1CCN(c2ccc(S(=O)(=O)N3CCCCC3)cc2NC(=O)CC(NC(C)=O)c2ccccc2)CC1 (stereo not drawn),i,2.4
CCOc1ncccc1C(=O)NCc1ccccc1F,i,2.2
O=C(NCCCN1CCOCC1)c1ccc(S(=O)(=O)N2CCOCC2)cc1,i,2.6
O=C(COc1ccc(Cl)cc1)N1CCN(Cc2ccc3c(c2)OCO3)CC1,i,-1.6
C/C(=N/NC(=O)c1ccc(Cl)s1)c1cccnc1,i,0.14
Cc1ccc(CNS(=O)(=O)c2c(C(=O)N3CCCCCC3)c(C)n(C)c2C)cc1,i,-1.3
CCCCn1c(NC(=O)c2ccco2)c(S(=O)(=O)c2ccc(C)cc2)c2nc3ccccc3nc21,i,0.35
O=C(CCN1C(=O)/C(=C/c2ccc3c(c2)OCO3)SC1=S)Nc1ccc(C(=O)O)cc1,i,2.9
CC1CCCN(c2nc3c(c(=O)n(C)c(=O)n3C)n2Cc2ccccc2)C1 (stereo not drawn),i,1.4
C=CC(=O)NC(C)(C)Cc1ccccc1,i,0.01
COc1ccc(CC(=O)Nc2c(C(=O)N3CCN(c4ncccn4)CC3)oc3ccccc23)cc1,i,-0.72
O=C(OCCCN1CCCCC1)c1ccc(O)cc1,i,0.85
COc1cccc(NC(=O)c2ccccc2N2C(=O)C3C4C=CC(C4)C3C2=O)c1 (stereo not drawn),i,-0.07
O=C(COc1ncnc2c(Cl)cc(Cl)cc12)N1CCCCC1,i,-0.11
Cc1cc(S(=O)(=O)N2CCOCC2)ccc1OCC(=O)Nc1ccc(F)cc1F,i,-0.75
CCCn1c(N)c(N(CCOC)C(=O)COC(=O)c2ccccc2NCCO)c(=O)[nH]c1=O,i,0.32
COc1ccc(-c2nnc3n(CCc4ccccc4)c(=O)c4ccccc4n23)c(OC)c1,i,0.35
CCCc1nnc(NC(=O)C(CC)OC(=O)c2cc(C)nc3ccccc23)s1 (stereo not drawn),i,-2.6
O=[N+]([O-])c1ccc2[nH]c(O)c(N=NC(=S)NCC3CCCO3)c2c1 (stereo not drawn),i,1.7
CCN(CC)CCNC(=O)/C(=C\c1cccn1C)NC(=O)c1cccs1,i,0.71

# A draw from above in order of length of the SMILES, rising:
SMILES,KCNQ2 inh,KCNQ2 inh baseline
O=C(OCCCN1CCCCC1)c1ccc(O)cc1,i,0.85
CCOC(=O)Cn1nc(NC(=O)c2ccc3c(c2)OCO3)cc1C,i,1.4
Cc1ccnc(N2C(=O)c3ccccc3C2Nc2ccc3c(c2)OCCO3)c1 (stereo not drawn),i,-0.96
O=C(COC(=O)c1ccco1)c1ccc(S(=O)(=O)N2CCCCC2)cc1,i,1.7

# (list continues)
SMILES,KCNQ2 inh,KCNQ2 inh baseline
O=C(c1cc(COc2ccc3ncccc3c2)on1)N1CCCCCC1,i,-2.6
CCCC(C(=O)NC1CCCC1)N(CC1CCCO1)C(=O)c1snc(C(N)=O)c1N (stereo not drawn),i,-1.5
O=C(NNC(=S)NC(=O)c1cccnc1)c1ccc(Cl)cc1,i,12
CCOc1ncccc1C(=O)OCC(=O)Nc1cc(C)ccc1C,i,0.08
Cc1cc(N(CC(=O)NC(C)C)S(C)(=O)=O)ccc1Br,i,0.92
COCCN1C(=O)C(O)=C(C(C)=O)C1c1ccc(F)cc1 (stereo not drawn),i,0.6
CCCc1c(C)[nH]c2ccc(NC(C)=O)cc2c1=O,i,1.7
OCc1ccc(-c2ccccc2)c(-c2ccccc2)c1,i,-0.51
Cc1ccc(S(=O)(=O)Nc2ccncc2)c(C)c1,i,-0.29
Cc1ccc(S(=O)(=O)NCCCCCC(=O)Nc2c(C)n(C)n(-c3ccccc3)c2=O)cc1,i,-0.28

# Overlap with the part before: four entries, then new ones.
SMILES,KCNQ2 inh,KCNQ2 inh baseline
CCCc1c(C)[nH]c2ccc(NC(C)=O)cc2c1=O,i,1.7
OCc1ccc(-c2ccccc2)c(-c2ccccc2)c1,i,-0.51
Cc1ccc(S(=O)(=O)Nc2ccncc2)c(C)c1,i,-0.29
Cc1ccc(S(=O)(=O)NCCCCCC(=O)Nc2c(C)n(C)n(-c3ccccc3)c2=O)cc1,i,-0.28
O=C(NCCc1ccc(Cl)cc1)C1CCN(c2ncccn2)CC1,i,1.1
CC(C)n1ncc2c(C(=O)O)cc(C3CC3)nc21,i,-2.1
Cc1nnc(NC(=O)c2ccccc2Oc2ccccc2)s1,i,-1.6
Cc1ccc2oc(=O)c3cc(C(=O)NCCCN4CCCC(C)C4)sc3c2c1 (stereo not drawn),i,0.53
O=C(NCc1cccnc1)c1ccc(Cn2cc(C(F)(F)F)ccc2=O)cc1,i,-0.83
O=C(NC(=S)NCc1ccccc1)C1CCCCC1,i,1.4
Cc1cccc(-c2noc(CN(C)C(=O)c3ccoc3C)n2)c1,i,0.14
Cc1ccc(CCNC(=O)C23C[C@H]4C[C@@H](C2)CC(n2nnc(C)n2)(C4)C3)cc1,i,-0.33
CCCOc1ccc(C2C(C(=O)c3ccc(C)o3)=C(O)C(=O)N2Cc2ccco2)cc1OCC (stereo not drawn),i,-0.55
Fc1ccc(Sc2ccccc2CNC2=NCCN2)cc1,i,0.01
O=C(COc1cccc(F)c1)N1c2ccccc2Sc2ccccc21,i,-0.86
Cc1cc(-c2nnc(SCc3cccnc3)o2)no1,i,-0.36
Cc1ccc(NC(=O)[C@@H]2CCCN2S(=O)(=O)c2ccccc2C(F)(F)F)cc1S(=O)(=O)N1CCOCC1,i,-0.25
O=C(c1ccco1)N1CCCN(Cc2cn[nH]c2-c2ccc(-c3ccccc3)cc2)CC1,i,0.51
COc1ccc(-n2c(C)cc(C(=O)CCl)c2C)cc1,i,-2.3
CCCCNC(=O)COC(=O)c1ccc(Cl)c(S(=O)(=O)N2CCCC2)c1,i,2.4
CN1CCC(OC(=O)COc2ccccc2)CC1,i,0.13
O=C(CSc1nnc(NC(=O)c2ccccc2Cl)s1)Nc1ccc2c(c1)oc1ccccc12,i,0.65
CN(C(=O)CS(=O)(=O)c1cn(CC(=O)N2CCCC2)c2ccccc12)c1ccccc1,i,2.1
CCOc1ccc(Cl)cc1C(c1c(C)[nH][nH]c1=O)c1c(C)[nH][nH]c1=O,i,0.61
CS(=O)(=O)N1CCCC(C(=O)Nc2cccc(F)c2)C1 (stereo not drawn),i,0.13
CN(CC(=O)Nc1ccccc1Cl)C(=O)CSc1ncc(C(F)(F)F)cc1Cl,i,1.1
CC(=O)Nc1c(-c2ccccc2)nc2cc(C)ccn12,i,1.2
Cc1ccc(C2=[N+]([O-])C(C)(C)CC2)cc1,i,0.48
O=C(O)/C=C/C(=O)Nc1ccc(Oc2ncnc3cc(Cl)ccc23)nc1,i,2.4
CCn1c(CCCCc2n[nH]c(=S)n2CC)n[nH]c1=S,i,1.4
O=C(O)CCC1=C2c3ccccc3CCN2C(=O)CC1,i,3.6
COc1ccccc1/C=C/CN1CCCC(CO)(CCc2ccccc2)C1 (stereo not drawn),i,0.04
Cc1cc(-c2ccc(C)c(S(=O)(=O)NCCCN3CCCCCC3)c2)on1,i,2.8
COc1ccc(C2CC(c3ccc4ccccc4c3OC(C)=O)=NN2C(C)=O)cc1 (stereo not drawn),i,0.67
Cc1sc(NC(=O)CCCCC(=O)Nc2sc(C)c(C)c2C(=O)O)c(C(=O)O)c1C,i,3
O=c1[nH]c(SCc2ccc(Cl)cc2)nc2c1CCC2,i,0.98
CCSc1nnc(Cc2cc(=O)[nH]c(=O)[nH]2)n1-c1ccc(Cl)cc1,i,-0.07
O=C1CSCC(=O)N1Cc1ccc(Cl)cc1Cl,i,0.79
CCCCOc1ccccc1C1C(C(=O)OC)=CN(CC)C=C1C(=O)OC,i,1.1
O=C(Nc1nnc(-c2ccc3c(c2)OCCO3)o1)C1CCCCC1,i,0.26
COc1ccc(C(=O)CCC(=O)N2CCN(c3ccc(N4CCOCC4)nn3)CC2)cc1,i,1.9
COc1ccc(NCc2nnc(SCC(=O)Nc3ccccc3OC)o2)cc1,i,-0.28
CCOC(=O)c1cnc(-n2nc(C)cc2C)nc1NNc1nc(C)cc(C)n1,i,-1.8
CCOC(=S)SCC(=O)Nc1ncc(C)s1,i,0.03
Cc1ccc(CC(CC(=O)NCCc2ccc3c(c2)OCO3)C(=O)O)cc1 (stereo not drawn),i,1.3
Brc1ccc(-c2noc3c2-c2nc(-c4ccccc4)sc2CC3)cc1,i,0.35
O=C(NC1CCCCC1)c1ccc(NS(=O)(=O)c2cccc3cccnc23)cc1,i,7.2
Cc1sc2ncnc(NCCCn3ccnc3)c2c1C,i,5
O=C(Cc1cccc2ccccc12)Nc1nc(-c2cccc([N+](=O)[O-])c2)cs1,i,0.89
Cc1ccc(OCC(=O)NCCNC(=O)c2ccccn2)cc1,i,0.42
N#C/C(=C\c1ccc[nH]1)S(=O)(=O)c1ccccc1,i,0.72
O=C(CSCc1ccc(Cl)cc1)NCc1ccc2c(c1)OCO2,i,0.18
CN(Cc1ccccc1)c1nc2c(c(=O)[nH]c(=O)n2C)n1Cc1ccccc1F,i,0.26
CCOC(=O)c1sc(=S)n(CC)c1NC(=O)C1CC1,i,-1.6
# The list goes on:
SMILES,KCNQ2 inh,KCNQ2 inh baseline
Cc1cc(C)cc(NC(=O)CSc2ccc(-c3ccccn3)nn2)c1,i,0.68
CCN1CCN(c2ccc(S(=O)(=O)N3CCOCC3)cc2NC(=O)c2ccc(F)cc2Cl)CC1,i,1.4
CCOC(=O)c1cc2c(N)c(C(=O)c3ccc(Br)cc3)sc2[nH]c1=O,i,1.6
CCc1nnc(NC(=O)C2CC(=O)N(c3ccc(C)cc3)C2)s1 (stereo not drawn),i,1.4
Fc1ccc(CCNC(=S)Nc2ccc(F)c(Cl)c2)cc1,i,-0.75
O=C(Cc1ccc(Cl)cc1)NCCN1CCCC1,i,0.95
Cc1cc(C)cc(NC(=O)Cn2nnc(C(=O)NCc3cccs3)c2N)c1,i,2.4
O=C(CSc1nnc(Cc2cccs2)n1Cc1ccco1)Nc1ccc(Cl)cc1Cl,-6.9*,-1.6*
O=C(O)c1ccc2c(=O)n3c(nc2c1)/C(=C/c1ccccc1Br)CC3,i,-0.23
CCNCc1cc(Cl)cc(OC)c1OC(C)C,i,1.1
COc1cccc(-c2nc3ccccc3s2)c1O,i,0.07
COc1cc(/C=C(\NC(=O)c2ccccc2)C(=O)N2CC3CC(C2)c2cccc(=O)n2C3)cc(OC)c1OC (stereo not drawn),i,0.14
O=C(CN1C(=O)CCSc2ccc(S(=O)(=O)N3CCCC3)cc21)NCc1ccccc1Cl,i,-0.18

# Source: PubChem (Johns Hopkins Ion Channel Center)
